# ugtP null kill: growth inhibition of S. aureus ugtP deletion strain; S. aureus RN4220 ugtP deletion, OD600 growth, 16 h; some inactives read as strong as hits; growth inhibition, % (concentration not given with the values); actives 0.54% (n = 330,000); AID 1259309;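 active means z-score under -3 and OD600 up to 0.15 on both plates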;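 further: plate controls were untreated wells for no effect and antibiotic for full effect; wells of about 80 µL received 100 nL stock; the first replicate is given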
# RN4220 kill: S. aureus RN4220 growth inhibition | OD600, 16 h | inhibition, % (concentration not given with the values) | actives 0.33% (n = 330,000);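 active means z-score of -3 or lower and OD600 up to 0.18 on both plates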;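 further: plate controls were untreated cells for no effect and reference antibiotic for full effect; stock transfer was 100 nL into about 80 µL; one replicate is shown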
# Autofluor counter: counter-screen for toxin protease inhibitors: compound fluorescence; fluorescence intensity (no concentration beside the values); actives 3.1% (n = 360,000); compound autofluorescence counterscreen, microsphere flow cytometry; stronger effect = higher value;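 active means at least 3 SD above the mean of all compounds, about 16000 in these data; inconclusive means too few beads counted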;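 further: 100 nL of 1 mM stock went into each well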
# BJeLR lethal: BJeLR cell viability loss. BJeLR (HRASV12) viability, CellTiter-Glo ATP luminescence, 48 h; reference of the scale not given here. inhibition, % (test concentration not listed). actives 0.17% (n = 300,000);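 active means replicate mean above 50%; inconclusive means above 50% but judged a plate artefact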;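 further: 50 nL library stock added to about 25 µL; numbers are from one replicate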
# Mtb hypoxia rep: inhibitors of hypoxia-regulated fluorescent reporter in Mycobacterium tuberculosis; M. tuberculosis hypoxia-regulated fluorescent reporter, fluorescence; fluorescence inhibition, % (concentration not given with the values); AID 1159583; actives 0.1% (n = 300,000);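 active means 35 to 45% if threefold the growth effect, above 45% if 1.5-fold the growth effect; inactive means the rest, general growth blockers included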;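 further: wells of about 50 µL received 100 nL stock; 0% = vehicle wells and 100% = reference inhibitor wells; whole bacteria with a GFP reporter of the hypoxia response; strong numbers were not always called active; many hits fall short of the cut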
# PrP UTR inh: inhibition of PrP 5' UTR reporter expression; actives 0.35% (n = 340,000); inhibition, % (concentration not given with the values); cell-based PrP 5' UTR mRNA reporter, plate reader;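 active means every replicate at 50% or more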;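 further: 0 = median of the neutral control wells; tested in H4 reporter cells; numbers are from one replicate; inactives centre near -14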
# Mtb hypoxia rep growth: recorded beside Mtb hypoxia rep, whose call it bears; growth inhibition, %; measured here: M. tuberculosis growth (absorbance);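 0% = vehicle and 100% = reference antibiotic; read after six days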
# Starred values were filed as active, the others as inactive; ? = inconclusive; / = not tested or not shown.
1	CC1CCc2sc(C(=O)NN=CC3CCCCC3)cc2C1 (stereo not drawn)
2	O=C(O)CSc1nc2ccc(Br)cc2[nH]1
3	Cc1cnc(C(=O)OC(C)C(=O)c2c(C)[nH]c3ccccc23)cn1 (stereo not drawn)
4	CSc1cccc(NC(=O)N2CCN(C)CC2)c1
5	CCOc1ccc(S(=O)(=O)Nc2cccc(C(=O)NCCCN3CCCC3=O)c2)cc1
6	CCN(CC(=O)Nc1ccccc1C(F)(F)F)C(=O)CCSc1ccc(F)cc1

compound no.	1	2	3	4	5	6
ugtP null kill	8.8	3.0	-1.0	8.5	2.1	3.6
RN4220 kill	4.1	5.1	1.5	5.3	2.9	2.8
Autofluor counter	/	4083	/	3793	3568	4447
BJeLR lethal	/	/	1.0	1.2	/	-15.5
Mtb hypoxia rep	-2.8	14.3	-1.7	14.7	9.0	-1.3
Mtb hypoxia rep growth	0.9	8.0	12.8	12.6	10.0	-3.0
PrP UTR inh	/	-21.7	-9.8	-25.7	-17.1	-4.5

7	COc1ccc(-c2cc(C(F)(F)F)nc(NCc3ccco3)n2)cc1OC
8	COc1ccc(Br)cc1CNC(=O)C1CCC(=O)N1C(C)C (stereo not drawn)
9	COc1cc2ncc(S(=O)(=O)c3ccccc3)c(N3CCCC(C)C3)c2cc1OC (stereo not drawn)
10	CCN(CC)C(=O)C(=O)c1cn(CC(=O)NCC2CCCO2)c2ccccc12 (stereo not drawn)
11	S=c1nc(-c2ccccc2)oc2c1CCCC2
12	c1ccc(-c2nnc3n2NC(c2ccc4c(c2)OCO4)S3)cc1 (stereo not drawn)

compound no.	7	8	9	10	11	12
ugtP null kill	1.0	-2.6	-10.0	0.9	15.9	1.8
RN4220 kill	1.3	0.1	6.9	3.7	1.6	12.0
Autofluor counter	8818	5808	4781	3272	4609	7642
BJeLR lethal	-1.1	8.3	2.9	-19.3	4.6	8.5
Mtb hypoxia rep	13.4	1.4	-1.9	12.0	3.2	13.8
Mtb hypoxia rep growth	11.1	4.3	8.0	-4.9	1.3	9.9
PrP UTR inh	-7.6	-15.6	-7.0	-16.3	-60.4	/

13	CCN(CC)S(=O)(=O)c1cc(C(=O)NC2=NCCS2)ccc1Cl
14	Nc1nnc(SCC(=O)NNC(=O)c2ccccc2F)s1
15	O=C(c1ccsc1)N1CCCC(N2CCOCC2)C1 (stereo not drawn)
16	O=C(c1ccccc1)C(c1ccccc1)c1ccccc1
17	COC(=O)CN(C)C(=O)c1ccc(OC)c(OC2CCN(C(C)C)CC2)c1
18	O=C(Cn1nnc(N2CCCCC2)n1)c1ccc(Cl)c(Cl)c1

compound no.	13	14	15	16	17	18
ugtP null kill	-0.9	2.3	-2.9	21.3	4.0	0.3
RN4220 kill	-0.2	4.2	0.8	5.5	3.4	2.8
Autofluor counter	4701	3597	4087	3960	3774	/
BJeLR lethal	-5.4	/	-0.7	2.0	-0.4	0.6
Mtb hypoxia rep	/	4.7	2.2	5.0	9.2	4.4
Mtb hypoxia rep growth	/	5.7	-4.1	6.3	7.5	-1.2
PrP UTR inh	-16.1	-4.6	19.1	-11.7	-18.2	-10.1

19	CCc1ccccc1N(CC(=O)NC(C)c1ccccc1)S(C)(=O)=O (stereo not drawn)
20	COc1cc(OC)cc(C(=O)Nc2ccccc2N2CCOCC2)c1
21	COc1cccc(CN2CCN(Cc3cc4ccccc4o3)CC2CCO)c1 (stereo not drawn)
22	CCC(C)(C)n1nnnc1CN(Cc1ccc(Cl)cc1)Cc1ccco1
23	COc1ccc(OC)c(NC(=O)COC(=O)c2cc3c(s2)CCC3)c1
24	O=C(OC(C(=O)NC1CCCC1)c1ccccn1)c1cccs1 (stereo not drawn)

compound no.	19	20	21	22	23	24
ugtP null kill	5.5	2.1	-0.5	6.2	-11.2	2.2
RN4220 kill	5.9	3.7	1.8	14.6	6.4	2.9
Autofluor counter	3827	7980	4366	2409	2449	3645
BJeLR lethal	-1.8	8.7	-2.2	7.1	-3.2	6.8
Mtb hypoxia rep	11.1	10.1	4.4	0.7	-0.7	13.2
Mtb hypoxia rep growth	-4.0	8.2	20.4	11.8	-5.5	9.3
PrP UTR inh	-60.8	-15.1	-19.8	-6.8	0.3	-36.7

25	COc1ccc(N2C(N)=C(C#N)C(c3ccsc3)C3=C2CCCC3=O)c(OC)c1 (stereo not drawn)
26	Cc1cc(C(=O)OCC(=O)Nc2ccccc2Cl)c(C)o1
27	O=C(CCn1c(=O)[nH]c2ccsc2c1=O)Nc1ccc(F)c(F)c1
28	CCOC(=O)c1c(C)[nH]c(C2=NNC(=NC(C)COC)SC2)c1C (stereo not drawn)
29	C=CCc1cccc2cc(C(=O)Nc3ccc(F)cc3)c(=O)oc12
30	COc1cc2c(cc1OC)[C@H](C)N(C(=O)CSc1nc(O)c(C(C)C)c(=O)[nH]1)CC2

compound no.	25	26	27	28	29	30
ugtP null kill	4.2	-0.6	3.8	-15.2	-7.6	-6.0
RN4220 kill	4.5	0.8	5.8	2.3	6.4	-1.4
Autofluor counter	2249	8496	8103	4131	10193	5923
BJeLR lethal	0.8	/	-10.5	-0.8	17.8	-3.3
Mtb hypoxia rep	13.1	-0.3	13.9	-0.8	-1.5	/
Mtb hypoxia rep growth	10.2	8.8	19.1	-0.6	-1.5	/
PrP UTR inh	-5.2	-25.7	-13.6	-41.9	-55.4	-17.6

31	CC1(C)C2CCC1(C)C(OC(=O)CSc1nc(N)cc(=O)[nH]1)C2 (stereo not drawn)
32	O=C1CN(C(=O)COC(=O)c2ccccc2O)c2ccccc2N1
33	N/C(=N\OC(=O)c1ccc(Cl)c(Cl)c1)c1cccnc1
34	CCCCC(CC)C(=O)NCCCN1CCN(CCCNC(=O)C(CC)CCCC)CC1 (stereo not drawn)
35	Cc1ccc(NC(=O)CNC(=O)c2ccc(C)s2)nc1
36	CC1Cc2ccccc2N1C(=O)CSc1nnnn1C1CCCC1 (stereo not drawn)

compound no.	31	32	33	34	35	36
ugtP null kill	-5.3	8.8	-5.7	1.9	1.4	1.3
RN4220 kill	4.7	2.8	3.9	3.7	-0.6	1.5
Autofluor counter	10034	4341	3091	2995	?	3880
BJeLR lethal	0.5	-20.4	-0.2	-2.2	-16.2	-2.6
Mtb hypoxia rep	-8.6	16.3	/	8.8	12.2	-1.1
Mtb hypoxia rep growth	3.6	4.5	/	8.1	6.1	2.2
PrP UTR inh	-4.9	-10.7	-34.6	-22.2	-25.3	-29.0

37	Cc1sc2nc(CSCC(=O)N3CC(C)OC(C)C3)[nH]c(=O)c2c1C (stereo not drawn)
38	COc1cccc(CNC(=O)CN2C(=O)CC(c3ccccc3)=Nc3ccccc32)c1
39	CC(CSc1nc2ccccc2s1)Cn1c(N2CCCC2)nc2c1c(=O)[nH]c(=O)n2C (stereo not drawn)
40	O=C(Cn1cccc1C(=O)c1ccccc1)NCc1ccccn1
41	O=C(CCn1c(=S)oc2ccccc21)Nc1ccc2c(c1)OCCO2
42	Cc1ccc(CNC(=O)C2CCCN2S(=O)(=O)c2ccc(F)cc2)cc1 (stereo not drawn)

compound no.	37	38	39	40	41	42
ugtP null kill	-1.9	4.0	-3.2	2.9	5.2	3.6
RN4220 kill	0.6	3.6	-6.3	1.9	-5.2	4.8
Autofluor counter	/	5382	3031	2762	5412	3255
BJeLR lethal	/	/	-7.3	-3.4	-3.5	0.8
Mtb hypoxia rep	-0.1	-2.4	22.3	5.0	/	9.7
Mtb hypoxia rep growth	7.9	0.7	7.1	2.1	/	3.2
PrP UTR inh	-9.5	6.8	0.1	-17.3	-20.7	-13.2

43	CCOC(=O)c1oc2ccccc2c1NC(=O)c1cccs1
44	COc1ccc(C(=O)NC2CCN(S(=O)(=O)c3ccccc3)CC2)cc1
45	CC(=O)N1CCc2cc(S(=O)(=O)Nc3ccccc3N3CCN(C)CC3)ccc21
46	O=C(Nc1nc2ccccc2s1)c1ccc(Cl)s1
47	CCOc1cc(/C=N/NC(=O)c2nn(C)cc2Br)ccc1OCc1ccccc1Cl
48	COC(=O)c1ccc(CNC(=O)Cn2cnc3c(SC)nc(N)nc32)cc1

compound no.	43	44	45	46	47	48
ugtP null kill	-17.3	5.0	-2.1	5.2	/	8.8
RN4220 kill	1.6	3.6	6.7	4.5	/	4.3
Autofluor counter	10094	3952	5922	5474	2536	2982
BJeLR lethal	-6.8	1.1	10.9	5.3	2.5	/
Mtb hypoxia rep	12.4	-2.8	-0.3	/	/	1.0
Mtb hypoxia rep growth	5.3	0.0	-5.1	/	/	-5.9
PrP UTR inh	/	1.1	-36.7	-92.1	-17.7	-2.7

49	CN1Cc2c(N3CCOCC3)nc3sc(C(=O)c4ccccc4)c(N)c3c2CC1(C)C
50	CCOc1cc(S(=O)(=O)N2CCCCCC2)ccc1F
51	CC12CCC(=O)N1C(C(=O)NCc1ccc(Cl)cc1Cl)CS2 (stereo not drawn)
52	Cn1c(CC(=O)NC(C)(C)CO)c(Sc2ccccc2)c2ccccc21
53	CC(=O)N1CCN(C(=S)Nc2cc(S(=O)(=O)N3CCOCC3)ccc2Cl)CC1
54	CCn1cc(C(=O)N[C@@H](CCSC)C(=O)NCCO)c(=O)c2cc3c(cc21)OCO3

compound no.	49	50	51	52	53	54
ugtP null kill	1.5	3.9	2.6	11.4	7.8	4.7
RN4220 kill	0.8	7.7	3.5	-1.4	3.7	-1.6
Autofluor counter	5442	11151	/	3054	4290	4014
BJeLR lethal	2.7	4.5	-9.9	6.1	1.0	11.0
Mtb hypoxia rep	13.8	7.8	9.8	10.4	9.8	-4.6
Mtb hypoxia rep growth	6.5	11.7	7.9	-4.0	9.4	-3.0
PrP UTR inh	-15.8	/	0.1	-12.0	-12.9	-0.5

55	COc1ccc(N2CC(C(=O)N3CCCC(C)C3)CC2=O)cc1 (stereo not drawn)
56	Cc1ccc(-c2csc(NC(=O)C3=NN(c4ccccc4)C(=O)CC3)n2)cc1
57	COc1cc2c(cc1OC)C(C)N(C(=O)c1cc3c(=O)oc4ccc(C)cc4c3s1)CC2 (stereo not drawn)
58	Cn1c(SCc2c(F)cccc2Cl)nnc1-c1cnccn1
59	O=C(CCn1c(=O)oc2ccccc21)N(Cc1ccccc1)c1ccccn1
60	CCOC(=O)c1c(NC(=O)COC(=O)c2nccnc2N)sc(C(=O)N(C)C)c1C

compound no.	55	56	57	58	59	60
ugtP null kill	9.3	0.5	/	10.2	1.9	5.0
RN4220 kill	5.2	4.8	/	5.5	4.8	2.8
Autofluor counter	6352	2255	5544	15183	9474	4329
BJeLR lethal	6.9	12.7	-6.2	-4.7	-10.3	-3.1
Mtb hypoxia rep	2.6	10.3	/	20.6	6.9	4.4
Mtb hypoxia rep growth	-0.1	5.0	/	16.5	1.0	-2.5
PrP UTR inh	-6.6	-11.7	-5.9	-38.0	-24.4	-11.9

61	Cc1ccccc1Cn1c(Cc2ccccc2)nc2ccccc21
62	Cc1ccc2nc(SCC(=O)Nc3ccc(Br)cc3)nc(=O)n2c1
63	O=C(c1cc2nc(-c3ccccc3)cc(-c3ccccc3)n2n1)N1CCN(C(=O)c2ccco2)CC1
64	CCOC(=O)c1c(NC(=O)C[n+]2ccccc2)sc2c1CCCC2
65	COCC1CCN(C(=O)CCc2nnc(C3(c4ccc(Cl)cc4)CCC3)o2)C1 (stereo not drawn)
66	CCOc1ccc(-n2c(C)cc(C=NNc3nc(C)cc(=O)[nH]3)c2C)cc1

compound no.	61	62	63	64	65	66
ugtP null kill	5.7	/	-12.3	2.2	2.9	19.8
RN4220 kill	1.2	/	-7.2	2.7	0.0	4.1
Autofluor counter	24142*	4503	5888	3203	5570	/
BJeLR lethal	-5.1	3.4	-10.6	-8.4	-0.8	/
Mtb hypoxia rep	0.6	/	/	-1.6	-3.0	9.8
Mtb hypoxia rep growth	2.6	/	/	13.8	0.4	10.7
PrP UTR inh	3.6	0.1	-8.5	-1.8	-25.0	/

# Three structures already listed, ordered by SMILES length, low to high.
61	Cc1ccccc1Cn1c(Cc2ccccc2)nc2ccccc21
64	CCOC(=O)c1c(NC(=O)C[n+]2ccccc2)sc2c1CCCC2
63	O=C(c1cc2nc(-c3ccccc3)cc(-c3ccccc3)n2n1)N1CCN(C(=O)c2ccco2)CC1

compound no.	61	64	63
ugtP null kill	5.7	2.2	-12.3
RN4220 kill	1.2	2.7	-7.2
Autofluor counter	24142*	3203	5888
BJeLR lethal	-5.1	-8.4	-10.6
Mtb hypoxia rep	0.6	-1.6	/
Mtb hypoxia rep growth	2.6	13.8	/
PrP UTR inh	3.6	-1.8	-8.5

# Compound activity as filed in PubChem.
